Bioassay records deposited in PubChem by Johns Hopkins Ion Channel Center.
KCNQ2 block: KCNQ2 potassium channel inhibitors, primary screen, cell-based, CHO-K1, FluxOR thallium flux, B-score (AID 2156); Potassium voltage-gated channel subfamily KQT member 2 (Rattus norvegicus), O88943; 20 min; hits give low values; only compounds with negative scores are shown here; some inactives read as strong as hits; B-score at 10 µM; actives 1.1% (n = 310,000);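 active = fluorescence ratio B-score at most minus 3 library SDs, with starting brightness B-score within 2 library SDs, cut at about -5.5 in these data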
Target sequence (O88943 whole entry, looked up): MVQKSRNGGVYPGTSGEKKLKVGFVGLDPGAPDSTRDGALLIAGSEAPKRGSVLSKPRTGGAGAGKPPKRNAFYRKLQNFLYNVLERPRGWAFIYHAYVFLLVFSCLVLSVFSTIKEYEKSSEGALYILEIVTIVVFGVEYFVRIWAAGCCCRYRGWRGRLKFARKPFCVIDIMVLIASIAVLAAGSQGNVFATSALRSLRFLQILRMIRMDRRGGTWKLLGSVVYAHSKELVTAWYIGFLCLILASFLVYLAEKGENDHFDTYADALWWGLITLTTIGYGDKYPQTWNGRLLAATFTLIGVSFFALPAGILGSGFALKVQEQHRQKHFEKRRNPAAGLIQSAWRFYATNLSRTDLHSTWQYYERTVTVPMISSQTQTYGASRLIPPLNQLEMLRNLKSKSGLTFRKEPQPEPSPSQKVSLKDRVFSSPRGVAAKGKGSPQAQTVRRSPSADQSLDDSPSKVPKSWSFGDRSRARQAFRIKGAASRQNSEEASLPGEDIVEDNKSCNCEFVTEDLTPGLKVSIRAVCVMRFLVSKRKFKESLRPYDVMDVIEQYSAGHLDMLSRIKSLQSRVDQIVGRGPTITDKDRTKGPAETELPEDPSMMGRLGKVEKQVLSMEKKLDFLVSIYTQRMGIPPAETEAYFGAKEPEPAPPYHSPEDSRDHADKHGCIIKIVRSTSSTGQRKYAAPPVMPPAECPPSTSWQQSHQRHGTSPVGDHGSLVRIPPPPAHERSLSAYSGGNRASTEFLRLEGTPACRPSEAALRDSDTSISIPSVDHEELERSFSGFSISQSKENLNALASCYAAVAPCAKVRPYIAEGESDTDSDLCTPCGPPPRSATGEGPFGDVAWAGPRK
KCNQ2 block baseline: second read-out of KCNQ2 block, no call of its own (marks repeat the call); B-score; measured here: initial fluorescence intensity artifact check;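 brightness before thallium and not channel activity; 0 = typical well and far values either way flag optical interference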
* = called active by the depositor; i = inactive. An excerpt (hit frequency here may not be typical).

KCNQ2 block	KCNQ2 block baseline	molecule
i	-0.55	Cc1ccc([N+](=O)[O-])cc1S(=O)(=O)Nc1ccc(-c2ccc(N3CCCC3)nn2)cc1
i	0.01	CN(Cc1nc2ccccc2s1)C(=O)c1ccc(F)cc1
i	0.63	O=C(O)COc1ccc(/C=N/NC(=O)c2cccc3ccccc23)cc1
i	0.02	CCCCCCCC1CC(=O)C=C(C)C1C(=O)OCC (configuration not stated)
i	0.64	CCC1CN(C(=O)NCc2ccc(C)cc2)c2ccccc2O1 (configuration not stated)
i	0.9	O=C(CCCC(=O)N(c1cccc(F)c1)C(C(=O)NC1CCCC1)c1ccc(O)cc1)Nc1ccccn1 (configuration not stated)
i	0.67	CCOC(=O)c1sc(N)c(C#N)c1CSc1nc2ccc(C)cc2[nH]1
i	1.21	O=C(CN1CCc2ccccc2C1)Nc1ccc(Br)cc1
i	0.58	COc1ccc(C)cc1NC(=O)C(OC(=O)c1ccc([N+](=O)[O-])o1)c1ccccc1 (configuration not stated)
i	0.01	CCOC(=O)N1CCN(S(=O)(=O)c2ccc3c(c2)OCC(=O)N3)CC1
i	1.03	CN(C)C(=O)Nc1ccccc1
i	-0.11	COc1ccc(/C=N/NC(=O)c2ccc(NC(C)=O)cc2)cc1COc1ccc(F)cc1F
i	-0.01	CCOc1ccc(C(=O)NCCc2ccc3c(c2)OCCO3)cc1
i	1.29	CC1CC(C)CN(CC(O)COc2ccc3c(c2)CCC3)C1 (configuration not stated)
i	-0.27	CC(C(=O)Nc1cccc(S(=O)(=O)N2CCOCC2)c1)N1CCN(C/C=C/c2ccccc2)CC1 (configuration not stated)
i	-0.33	CC(=O)N1CCN(CC(=O)Nc2cc([N+](=O)[O-])ccc2Cl)CC1
i	-0.12	COc1ccccc1NC(=O)NCc1ccc(C)n1C
i	0.44	CCCCn1cnc2cc(NCc3cccc(OC)c3O)ccc21
i	0.59	O=C(NCCc1ccc(Cl)cc1)C1CCCN(S(=O)(=O)c2cnc[nH]2)C1 (configuration not stated)
i	0.09	N=C1C=CC=C2C1=NC1(CCCCC1)N2O
i	-0.07	O=C(N/N=C1\CC(c2ccccc2)Oc2ccccc21)c1cccnc1 (configuration not stated)
i	0.35	CN1CCN(c2oc(COc3ccc(-c4ccccc4)cc3)nc2C#N)CC1
i	-0.07	COc1ccc(Br)cc1C(=O)Nc1ccc(N2CCCC2)cc1
i	-0.97	O=C(CCNC(=O)C1CCN(S(=O)(=O)c2ccc(F)cc2)CC1)NCc1ccc(F)cc1
i	-1.73	CCn1c(C)nc2cc(C(=O)NNC(=S)Nc3ccccc3OC)ccc21
i	-1.66	CC(C)c1ccc(NC2CCCN(C(=O)CN3C(=O)CSC3=O)C2)cc1 (configuration not stated)
i	0.68	Cc1cc(C)cc(NS(=O)(=O)c2ccc(NC(=O)c3ccccc3C(=O)O)cc2)c1
i	-0.03	CCOc1ccc(NS(=O)(=O)c2ccc3[nH]cc(C(=O)NC(C)CC)c(=O)c3c2)cc1 (configuration not stated)
i	0.18	O=C(CNC(=O)c1ccco1)NCCCc1ccccc1
i	-1.22	CCOCCCNS(=O)(=O)c1ccc(NC(=O)Cc2c(F)cccc2Cl)cc1
i	-1.08	Cc1nn(CC(O)COc2ccc3c(c2)CCC3)c(C)c1Br (configuration not stated)
i	1.16	COC(=O)c1ccc(Cl)cc1NC(=O)/C=C/c1ccc(C)o1
i	-1.28	O=C1CC(N(Cc2cccs2)C(=O)Nc2ccccc2)C(=O)N1c1ccc(Cl)cc1 (configuration not stated)
i	-0.93	Cn1nc(-c2ccccc2)c(C(O)c2ccccc2C(F)(F)F)c1Cl (configuration not stated)
i	-0.53	COc1ccc(C(=O)N2N=C(c3cccc(NS(C)(=O)=O)c3)CC2c2cccs2)cc1 (configuration not stated)
i	0.62	C/C(=N\NC(=O)c1ccc(Cn2cc(Br)cn2)o1)c1ccc(NC(=O)c2ccoc2C)cc1
i	-1.43	Cc1cc(CNC(=S)Nc2ccc(S(=O)(=O)Nc3ncccn3)cc2)nn1C
i	-0.61	CCOc1ccc2nc(SCC(=O)c3ccc(Cl)s3)sc2c1
i	-0.68	COC(=O)c1cc(NC(=O)Cn2c(=O)oc3ccccc32)cc(C(=O)OC)c1
i	0.99	CC/C(=N/O)c1cnnc(SC)n1
i	-0.52	CCn1c(C(O)c2ccc(C)cc2)nc2ccccc21 (configuration not stated)
i	0.91	CC(NS(=O)(=O)c1ccc(F)cc1)C(c1cccs1)N1CCOCC1 (configuration not stated)
i	1.77	O=c1[nH]c2c(oc3ccccc32)c(=O)n1Cc1ccccc1
i	0.7	CC(C)CC(=O)NC1(C(F)(F)F)NC(=O)N(c2ccccc2)C1=O (configuration not stated)
i	-1.59	C[C@@H]1CN(C(=O)c2ccc(OC3CCN(S(=O)(=O)N(C)C)CC3)cc2)C[C@H](C)O1
i	0.75	O=c1c(-c2ccnn2-c2ccccc2F)cnc2n1CCS2
i	0.03	Cc1cccc(NC(=O)c2sc3nc4c(c(-c5ccco5)c3c2N)CCC4)c1
i	0.22	COc1ccc(CC(=O)Oc2ccc(C(C)C)cc2)cc1S(=O)(=O)N1CCOCC1
i	2.79	COc1ccc([N+](=O)[O-])cc1NC(=O)Cn1ccc(C(F)(F)F)n1
i	-1.42	Cc1ccc(CCNC(=O)C2CC(c3ccccc3C(F)(F)F)=NO2)cc1 (configuration not stated)
i	-1.64	COCc1nnc(NC(=O)c2ccc(S(=O)(=O)N(C)c3ccccc3)cc2)o1
i	-0.08	O=C(Nc1ccc2nc3n(c(=O)c2c1)CCCC3)c1cncc(Br)c1
i	1.1	CCCC[C@@H]1CCCO[C@@](C(=O)NCc2ccc(C)o2)(C(F)(F)F)C1
i	0.2	CCOC(=O)C[C@H]1c2ccc(C(F)(F)F)cc2S(=O)(=O)N1Cc1ccccc1
i	1.92	CCOc1ccc(S(=O)(=O)NCCC(=O)NCCOc2ccccc2)cc1
i	-0.44	CCN(CC)N=Nc1ccc(S(=O)(=O)Nc2c(C)n(C)n(-c3ccccc3)c2=O)cc1
i	-0.43	CCNC(=O)CC1C(=O)N(c2ccc(OC)cc2)C(=S)N1CCc1ccncc1 (configuration not stated)
i	0.31	Cc1csc(NC(=O)CSCC(=O)Nc2ccccc2)n1
i	-0.1	CCC(C)(C)NC(=O)CN(C(=O)C(=O)Nc1ccc2c(c1)OCCO2)C(C)(C)CC
i	0.64	CC1(C)Cc2ccccc2-c2nc(CN3CCOCC3)[nH]c(=O)c21

5 entries from above in another layout.
SMILES,KCNQ2 block,KCNQ2 block baseline
CC1(C)Cc2ccccc2-c2nc(CN3CCOCC3)[nH]c(=O)c21,i,0.64
CCN(CC)N=Nc1ccc(S(=O)(=O)Nc2c(C)n(C)n(-c3ccccc3)c2=O)cc1,i,-0.44
Cc1csc(NC(=O)CSCC(=O)Nc2ccccc2)n1,i,0.31
Cc1ccc(CCNC(=O)C2CC(c3ccccc3C(F)(F)F)=NO2)cc1 (configuration not stated),i,-1.42
CCC(C)(C)NC(=O)CN(C(=O)C(=O)Nc1ccc2c(c1)OCCO2)C(C)(C)CC,i,-0.1

For reference, some entries already given:
KCNQ2 block	KCNQ2 block baseline	molecule
i	-0.43	CCNC(=O)CC1C(=O)N(c2ccc(OC)cc2)C(=S)N1CCc1ccncc1 (configuration not stated)
i	0.31	Cc1csc(NC(=O)CSCC(=O)Nc2ccccc2)n1
i	-0.1	CCC(C)(C)NC(=O)CN(C(=O)C(=O)Nc1ccc2c(c1)OCCO2)C(C)(C)CC
i	0.64	CC1(C)Cc2ccccc2-c2nc(CN3CCOCC3)[nH]c(=O)c21

Other compounds:
KCNQ2 block	KCNQ2 block baseline	molecule
i	0.34	COc1ccc(CCNC(=O)CSCc2ccc(C)cc2)cc1OC
i	0.87	Cc1cccc(C(=O)NCC(=O)OCc2nnc(-c3ccccc3)o2)c1
i	1.46	COc1ccc(C2c3ccc(O)cc3Oc3ncn(CCN4CCOCC4)c(=N)c32)cc1OC (configuration not stated)
i	-0.26	CCn1cc(CN(C)C(=O)CSc2nc(-c3ccco3)cc(C(F)(F)F)n2)c(C)n1
i	-1.54	O=C(C1COc2ccccc2O1)N1CCc2ccccc2C1 (configuration not stated)
i	2.38	CCC(CC)C(=O)Nc1cc(C(=O)OC)ccc1C(=O)OC
i	1.45	CC(C)CC(c1nnnn1C(C)C)N1CCN(c2cccc(Cl)c2)CC1 (configuration not stated)
i	-0.2	O=C(N/N=C/c1cc([N+](=O)[O-])ccc1O)/C(=C\c1cccs1)NC(=O)c1ccccc1
i	0.05	CCCCn1c(CCC(=O)O)nc2cc(S(=O)(=O)N(CC)CC)ccc21
i	-0.03	CN(Cc1cccc(Cl)c1Cl)C(=O)c1cccc(S(=O)(=O)N2CCN(Cc3ccccc3)CC2)c1
i	0.01	O=c1[nH]c(C2CCN(S(=O)(=O)c3cccc([N+](=O)[O-])c3)CC2)nc2c1nnn2Cc1ccccc1
i	0.01	COc1ccccc1N1CCN(C(=O)CCCN2C(=O)c3cccc4cccc(c34)C2=O)CC1
i	1.13	COc1cc(COCC(O)CN2CCN(Cc3ccc4c(c3)OCO4)CC2)cc(OC)c1OC (configuration not stated)
i	1.81	Cc1ccc2c(Cl)c(C(=O)NCCCn3ccnc3)sc2c1
i	1.93	COCc1nnc(NC(=O)CCCOc2ccccc2)s1
i	-0.38	O=C(O)c1cccc(-n2c(O)c(C=C3N=c4ccccc4=N3)sc2=S)c1
i	-0.81	CC1=C(C(=O)OCC(C)C)C(c2ccsc2)NC(=O)N1 (configuration not stated)
i	0.77	CCn1c(Cc2cccc3ccccc23)nnc1SCC(=O)Nc1nccs1
i	0.59	CCOC(=O)C1CCCN(c2nc3c(C)cccn3c(=O)c2/C=C(\C#N)C(=O)NCc2ccco2)C1 (configuration not stated)
i	0.02	CCN(CC)C(=O)CSC1=Nc2ccccc2C2=NC(c3ccccc3)C(=O)N12 (configuration not stated)
i	4.51	COc1cc(NC(=O)c2c(-c3ccccc3Cl)noc2C)c2ncccc2c1
i	-0.01	CCOC(=O)CNC(=S)N(Cc1cccs1)C1CCCC1
i	-0.55	COc1cc2nc(C3CCC3)n(NC(=O)C3CCC3)c(=O)c2cc1OC
i	1.05	CCn1c(C)nc2cc(C(=O)N=Nc3c(O)[nH]c4ccccc34)ccc21

Copied from the list:
`O=C(O)c1cccc(-n2c(O)c(C=C3N=c4ccccc4=N3)sc2=S)c1` @ KCNQ2 block baseline = -0.38
`CCN(CC)C(=O)CSC1=Nc2ccccc2C2=NC(c3ccccc3)C(=O)N12` (configuration not stated) @ KCNQ2 block baseline = 0.02
`CCOC(=O)CNC(=S)N(Cc1cccs1)C1CCCC1` @ KCNQ2 block baseline = -0.01
`Cc1ccc2c(Cl)c(C(=O)NCCCn3ccnc3)sc2c1` @ KCNQ2 block baseline = 1.81
`CCn1c(Cc2cccc3ccccc23)nnc1SCC(=O)Nc1nccs1` @ KCNQ2 block baseline = 0.77
`COCc1nnc(NC(=O)CCCOc2ccccc2)s1` @ KCNQ2 block baseline = 1.93

Carrying on.
KCNQ2 block	KCNQ2 block baseline	molecule
i	-0.26	Cc1ccc(Cn2cnc3c(cnn3C(C)(C)C)c2=O)cc1
i	-1.18	CCN(CC(=O)Nc1ccc2c(c1)OCCO2)C(=O)C1CC(=O)N(c2ccc(OC)cc2OC)C1 (configuration not stated)
i	0.26	CCCOc1ccc(C(=O)Nc2c[nH]c(=O)[nH]c2=O)cc1
i	0.4	CCOC(=O)C(NC(C)=O)(Nc1ccc(S(=O)(=O)Nc2onc(C)c2C)cc1)C(F)(F)F (configuration not stated)
i	0.69	CCOc1cc(NC(=S)NCC(C)C)c(OCC)cc1NC(=O)c1cccs1
i	3.8	Cc1ccc(-c2nnc(NC(=O)CCS(=O)(=O)c3ccccc3)o2)c(C)c1
i	4.31	CC(=O)Oc1cccc2c1C(=O)c1c(OC(C)=O)cc(C(=O)O)cc1C2=O
i	-1.12	N#Cc1ccc(C(=O)Nc2nnc(-c3cccs3)o2)cc1
i	-0.43	COCC(C)n1c(C)cc(C(=O)COC(=O)c2oc3ccccc3c2C)c1C (configuration not stated)
i	-0.38	CC(C)[C@H](NC(=O)CCn1nnc2ccccc2c1=O)C(=O)O
i	0.19	CC1C(=O)C(C)C(c2ccc(Cl)cc2)NC1c1ccc(Cl)cc1 (configuration not stated)
i	-0.3	COc1ccc(-c2cc(C(=O)N3CCN(c4ccccc4OC)CC3)no2)cc1OC
i	13.6	Cc1ccsc1C1C=C(c2cccc(Br)c2)Nc2ncnn21 (configuration not stated)
i	0.09	Cc1cc(C(=O)Cn2nc(C(=O)O)c3ccccc3c2=O)c(C)n1CC(F)(F)F
i	3.9	CCC(CC)C(=O)c1c[nH]c(C(=O)NCCCn2ccnc2)c1
i	1.18	O=C(CN1CC(c2ccccc2)CC1=O)N/N=C/c1cc(Br)ccc1O (configuration not stated)
i	-1.13	O=C(CN1C(=O)/C(=C/c2ccc(C(F)(F)F)cc2)Sc2ccccc21)NCCCN1CCOCC1
i	0.26	CCOc1cc(S(=O)(=O)N2CCN(Cc3ccccc3)CC2)ccc1Br
i	0.02	O=C(NC(Cc1ccccc1)C(=O)NC(Cc1ccccc1)C(=O)O)c1ccccc1 (configuration not stated)
i	-0.24	O=[N+]([O-])c1cc(S(=O)(=O)N2CCCCC2)ccc1NCc1cccc(Cl)c1
i	0.21	O=C(Nc1ccccc1)/C(=C/c1ccccc1)c1ccccc1
i	-0.63	CCN1CCOC(CC(=O)Nc2cccc([N+](=O)[O-])c2)C1=O (configuration not stated)
i	1.04	CCCN1CCN(CCNC(=O)Nc2cc(C)ccc2C)CC1
i	-1.02	CCCc1c(C(=O)N/N=C(\C)CCc2ccccc2)nnn1-c1nonc1N
i	-0.28	COc1ccccc1C1(CC(=O)N2CCCCC2)CCOC(C(C)C)C1 (configuration not stated)
i	2.23	CC1(C)C(c2ccccc2)=NC(c2ccc(Br)cc2)N1O (configuration not stated)
